Marburg entry inh: blocks Marburg virus binding to or entry into cells; Marburg virus pseudotyped entry inhibition, cell reporter; control for the full effect not named in the record; about a third of the inactives were read at about 46 µM; Potency, µM (top dose mostly 37.8 µM), for the others: top-dose activity change, negative = inhibition, usual class: inhibitors; hit rate 1.8% among 300,000; AID 540276; active = well fitted inhibition curve with a large enough effect; inconclusive = small, poorly fitted or top-dose-only effect, or effect the other way; inactive = flat fitted curve, though single readings scatter; tested in HEK293 cells; about a fifth of its hits are not listed in these tables; also: % is scaled to controls: 0 for no effect and ±100 for the full control effect; luciferase read-out
Cruzain inh noDet: cruzain (T. cruzi) inhibition without detergent; purified cruzain, Z-FR-AMC fluorescence, no detergent; hit rate 2.3% among 200,000; Potency, µM, inactives show max response, negative = inhibition, most hits filed as inhibitors; P25779;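 also: plate controls were enzyme without inhibitor for no effect and buffer without enzyme for full effect; nearly all actives have a fitted effect of over 40% in size; top concentration of the series not given in the record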
Target sequence (P25779 123-467 limits assumed): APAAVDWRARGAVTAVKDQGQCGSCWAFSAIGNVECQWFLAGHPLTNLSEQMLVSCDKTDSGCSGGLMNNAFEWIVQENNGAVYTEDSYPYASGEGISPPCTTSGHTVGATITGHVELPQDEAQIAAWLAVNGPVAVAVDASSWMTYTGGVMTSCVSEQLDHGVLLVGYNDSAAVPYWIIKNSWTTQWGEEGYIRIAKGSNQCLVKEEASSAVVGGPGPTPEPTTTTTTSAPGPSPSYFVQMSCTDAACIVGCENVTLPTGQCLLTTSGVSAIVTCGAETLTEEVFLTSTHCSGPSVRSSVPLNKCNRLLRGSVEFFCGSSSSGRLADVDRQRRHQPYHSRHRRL
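Purified cruzain at 1.5 nM, pre-incubated 15 min with compound at room temperature in 100 mM sodium acetate pH 5.5, 5 mM DTT, 0.00005% Triton X-100. Reaction started with 2 uM Z-FR-AMC; AMC fluorescence increase over 60 s gives rate.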
Cruzain Triton: inhibitors of Trypanosoma cruzi cruzain with detergent; Potency, µM, for the others: max response, negative = inhibition, actives largely listed as inhibitors; hit rate 0.43% among 200,000; purified cruzain, Z-FR-AMC fluorescence, 0.01% Triton;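 also: plate controls were neutral wells for no effect and buffer without enzyme for full effect; nearly all actives have a fitted effect of over 40% in size; top concentration of the series not given in the record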
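Compounds were screened in titration against cruzain (1.5 nM) with 0.01% Triton X-100 to counter colloidal aggregation. Activity was the AMC fluorescence increase over 60 s after adding 2 uM Z-FR-AMC at pH 5.5.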
SARS PLP yeast: inhibitors of SARS-CoV papain-like protease in yeast; S. cerevisiae expressing SARS-CoV PLpro, growth rescue; control for the full effect not named in the record; Potency, µM (titrated, usually from 32.9 µM), inactives show at the top dose activity, positive = growth rescue; hit rate 0.19% among 330,000; AID 485353; active means well fitted rising curve with a large enough effect; inconclusive means small, poorly fitted or top-dose-only effect; inactive means no such curve, though single readings can be large or run the other way; also: 0% is about no effect; nearly all actives have a fitted effect of over 55% in size; growth read by luminescence after 48 h
2A StopGo: lowers the luciferase signal of an FMDV 2A StopGo reporter; human cells with a luciferase reporter of 2A StopGo recoding; control for the full effect not named in the record; hit rate 1.2% among 410,000; Potency, µM (top dose mostly 57.9 µM), for the others: at the top dose signal change, negative = less light; active = well fitted falling curve with a large enough effect; inconclusive = small, poorly fitted or top-dose-only effect; inactive = no such curve, though single readings can be large or run the other way; tested in HEK293T cells; also: % is scaled to controls: 0 for no effect and ±100 for the full control effect; nearly all actives have a fitted effect of over 45% in size; luciferase light after 4 h
Lassa entry inh: Lassa virus entry inhibition. Lassa virus pseudotype entry inhibition, cell reporter; control for the full effect not named in the record. hit rate 1.2% among 300,000. Potency, µM (doses to about 37.9 µM), for inactives: at the top dose activity change, negative = inhibition, usual class: inhibitors; active means well fitted inhibition curve with a large enough effect; inconclusive means small, poorly fitted or top-dose-only effect, or effect the other way; inactive means flat fitted curve, though single readings scatter; tested in HEK293 cells; also: % is scaled to controls: 0 for no effect and ±100 for the full control effect; nearly all actives have a fitted effect of over 50% in size; luciferase read-out
RE007 growth inh: less growth of the S. pombe RE007 Vpr strain. S. pombe RE007 Vpr strain, BacTiter-Glo ATP luminescence, 24 h; control for the full effect not named in the record. Potency, µM (series often up to 92.2 µM), without a hit: at the highest dose activity change, negative = less growth. hit rate 0.21% among 360,000; active = well fitted falling curve with a large enough effect; inconclusive = small, poorly fitted or top-dose-only effect; inactive = no such curve, though single readings can be large or run the other way;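 also: % is scaled to controls: 0 for no effect and ±100 for the full control effect; nearly all actives have a fitted effect of over 50% in size; the assay follows cell death caused by Vpr and the record does not say whether a fall means rescue or toxicity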
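Fission yeast strain RE007, carrying one chromosomally integrated HIV-1 vpr copy, was seeded at OD 0.01 in PMG+AL medium with 23 nL pinned compound. After 24 h at 30 °C and 99% humidity, viability was read by BacTiter-Glo luminescence.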
NS1 inh: influenza NS1 inhibition; S. cerevisiae slowed by influenza A NS1, growth recovery by OD600; Potency, µM (series often up to 46.1 µM), without a hit: at the top dose activity, positive = more growth; hit rate 0.4% among 270,000; AID 2326; active means well fitted rising curve with a large enough effect; inconclusive means small, poorly fitted or top-dose-only effect; inactive means no such curve, though single readings can be large or run the other way; also: nearly all actives have a fitted effect of over 50% in size
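Recovery from NS1-induced slow growth read by OD600 in budding yeast switched to galactose assay medium (pH 6.0, -URA) at 1:100 dilution. Compound 23 nl per well; the matching strain lacking NS1 serves as control.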
* hit, by the source's call; ? = inconclusive; · = not tested or not shown; & = joins results of further samples; [ ] = another dose, or the depositor's remark. Unless noted, calls follow the shape of the dose curve; as a rule, active = well fitted curve in the direction sought with a large enough effect; inconclusive = small, poorly fitted or top-dose-only effect, or another doubt; inactive = no such curve, though single readings can be large; an effect the other way counts as inactive or inconclusive. Potency is read from the fitted curve at half-maximal effect. This is a random part of the collection, and some 4.7% of all compounds hit somewhere here.

mol | Marburg entry inh | Cruzain inh noDet | Cruzain Triton | SARS PLP yeast | 2A StopGo | Lassa entry inh | RE007 growth inh | NS1 inh
COc1ccc(/C=N\NC(=O)/C(=C\Nc2nccc(C)n2)NC(=O)c2ccccc2)cc1 | 1% | 19% | -14% | -3% | -18% | 17% | -1% | -15%
Cc1ccc(CNC(=O)CCCc2nnc3n(C)c(=O)c4sccc4n23)cc1 | · | -9% | 0.9% | · | -27% | -5%[46.1 µM] | · | ·
CC1CCCC(C)N1CC(O)COCc1ccccc1 (stereo unspecified) | 6.3µM* | · | · | -3% | -14% | -29%[46.1 µM] | -9% | -1%
Cn1c(=NCC(O)COc2ccccc2)sc2ccccc21 (stereo unspecified) | ? | 19% | -0.7% | -8% | 12% | ? | -17% | -10%
O=C(NCC(=O)N(c1ccccc1)C(C(=O)NC1CCCC1)c1cccnc1)c1ccco1 (stereo unspecified) | -6% | -5% | -0.1% | -1% | 19% | 0% | -4% | 4%[9.22 µM]
CCOC(=O)c1ccc(NC(=O)c2c(NCc3sccc3C)sc3c2CCC(C)C3)cc1 (stereo unspecified) | · | 1% | -12% | · | 17% | ? | · | ·
CC1(C)Cc2c(cnn2-c2ccccc2)C(=O)/C1=N\NC(=O)c1ccccc1 | ? | -2% | -6.3% | -11% | · | -11% | -15% | 3%
CNC(=O)c1c(NC(=O)CS(=O)(=O)c2ccc(Cl)cc2)sc(C)c1C | -3% | · | · | 3% | -25% | -2%[46.1 µM] | 1% | ·
Cc1ccc(/C=C(\NC(=O)c2ccc(C)cc2)C(=O)NCCCn2ccnc2)cc1 | 23%[46.1 µM] | · | · | 1% | 74%[activator] | 1% | -14% | ·
CS(=O)(=O)N(Cc1ccccc1)c1ccc(C(=O)N2CCOCC2)cc1 | ? | 10% | 5.2% | -1% | -15% | -33% | 1% | 0%
CCCCN(CC)C(=O)c1ccc2c(c1)OCO2 | 9% | 6% | -2.5% | 17% | -4% | -4% | 19% | -4%
COC(=O)C1=C(C)N(c2ccc(C)c(C)c2)/C(=C/c2ccco2)C1=O | -29%[46.1 µM] | · | · | 3% | ? | 4% | -4% | ·
CCOc1cc(N2CCOCC2)c(OCC)cc1NC(=O)c1ccc(OC)c(S(=O)(=O)N2CCOCC2)c1 | -27% | · | · | 0% | -1% | -3% | -3% | ·
COc1cccc(NC(=O)Nc2ccc3c(c2)N(C)C(=O)c2ccccc2S3)c1 | ? | 2% | -2.8% | · | -20% | ? | · | ·
CCCN1C(=O)C(Cc2nc3ccccc3c(=O)n2-c2ccc(OC)cc2)c2cc(C)ccc21 (stereo unspecified) | -15%[46.1 µM] | 10% | 0.3% | · | -4% | -28%[46.1 µM] | · | ·
CCC(C)(C)NC(=O)CN(C(=O)CCC(=O)Nc1ccccn1)c1ccc2c(c1)OCO2 | -11%[46.1 µM] | · | · | -3% | -1% | 11%[46.1 µM] | 1% | 7%
OC(CN1CCOCC1)Cn1cnc2ccccc21 (stereo unspecified) | ? | · | · | -1% | -5% | 8%[46.1 µM] | -1% | 1%
Cc1c(OC(C)C(=O)NCc2ccncc2)ccc2c3c(c(=O)oc12)CCC3 (stereo unspecified) | · | · | · | -7% | -23% | · | 20% | -18%
CCOC(=O)c1sc(NC(=O)c2nc3ncccn3n2)c(C(=O)OC)c1C | 1%[46.1 µM] | 5% | -0.5% | · | 2% | 19%[46.1 µM] | · | ·
Cc1cc(C)c2c(N)c(C(=O)Nc3c(C)n(C)n(-c4ccccc4)c3=O)sc2n1 | · | · | · | 2% | -4% | · | 4% | 0%
O=C(N/N=C/c1ccccc1)c1cc(-c2ccc3c(c2)OCO3)n[nH]1 | -22%[46.1 µM] | -12% | -1.7% | -8% | 3% | -1%[46.1 µM] | 7% | 4%
COc1cc(NS(=O)(=O)N2CCCC2)cc(OC)c1OC | 0% | -9% | -5.5% | -4% | · | -13% | -13% | 4%
CCCCNC(=O)/C(=C\c1ccc([N+](=O)[O-])o1)NC(=O)c1ccccc1 | ? | · | · | -2% | -8% | -12% | -26% | ·
O=C(CN1CCC(C(=O)c2ccc3c(c2)OCCO3)CC1)Nc1ccccc1F | -6%[46.1 µM] | · | · | 0% | 11% | 1% | -18% | -4%
O=[N+]([O-])c1ccc(S(=O)(=O)N/N=C/c2ccsc2)cc1 | · | · | · | 2% | 44%[activator] | · | -11% | -11%
O=C(NCCc1ccncc1)Nc1ccc(Cl)c(Cl)c1 | 13%[46.1 µM] | · | · | 3% | 16% | -1% | ? | ·
CN(CC(=O)N1CCCc2c1c(=O)oc1ccc(O)cc21)Cc1ccccc1 | -23% | -7% | -2.0% | 0% | 21% | 16% | -8% | 4%
Cc1noc2ncnc(Oc3ccc(F)cc3)c12 | 4% | 0% | -0.8% | 0% | ? | -19% | -1% | 6%
O=C1C(=NO)C(c2ccccc2)Oc2ccccc21 (stereo unspecified) | -4%[46.1 µM] | · | · | · | -14% | 7%[46.1 µM] | 65% | ·
O=C(N/N=C/C(Br)=C/c1ccccc1)c1ccncc1 | · | · | · | -6% | 4% | · | -14% | -32%

The list continues:
mol | Marburg entry inh | Cruzain inh noDet | Cruzain Triton | SARS PLP yeast | 2A StopGo | Lassa entry inh | RE007 growth inh | NS1 inh
COc1cc(NC(=O)COc2ccccc2[N+](=O)[O-])ccc1NC(=O)c1cccs1 | ? | · | · | 0% | -11% | ? | -15% | 4%
CCCc1nn2c(=O)cc(COC(=O)CNC(=O)COc3ccc(C)cc3)nc2s1 | · | 9% | -3.2% | · | -19% | -11%[46.1 µM] | · | ·
CC(=O)Nc1ccc(C2=NNC(=Nc3ccc(S(=O)(=O)N4CCOCC4)cc3)SC2)cc1 | 11µM* | · | · | 0% | -9% | ? | -7% | ?
O=C(CSc1nnc(C2CCCCC2)n1-c1ccccc1)NCc1ccco1 | -3% | 10% | 3.1% | 2% | · | -28% | 17% | -1%
COc1ccc(CN2CCCCCC2)cc1Br | -5% | · | · | -4% | 0% | 27% | -17% | -13%
C/C(=N\NC(=O)c1nnn(-c2nonc2N)c1-c1ccc2c(c1)OCO2)c1cccs1 | -11%[46.1 µM] | · | · | 1% | -14% | 18%[46.1 µM] | 2% | 3%
CCN(CC)S(=O)(=O)c1ccc(N2CCCC2)c(NC(=O)Cc2ccc(OC)cc2)c1 | -15%[46.1 µM] | · | · | 0% | 14% | ? | 5% | ·
CCN(Cc1ccncc1)S(=O)(=O)c1ccc(C(C)=O)cc1 | ? | -26% | 0.0% | -5% | ? | -16% | -5% | 0%
COc1ccc2cc(S(=O)(=O)NC3CC(C)(C)NC(C)(C)C3)ccc2c1 | ? | · | · | 1% | -7% | -7% | -6% | -1%
Cc1ccc(C(=O)Nc2cccc(-c3nc4ccccc4o3)c2)c(Cl)c1 | -18%[46.1 µM] | 13% | -4.1% | · | 1% | -1%[46.1 µM] | · | ·
CCc1nnc(NS(=O)(=O)c2ccc(NC(=O)c3ccc(C#N)cc3)cc2)s1 | -22%[46.1 µM] | · | · | 11% | 10% | 19%[46.1 µM] | 1% | ?
Cc1ccc(Cl)c(OCC(=O)Nc2ccc(S(=O)(=O)NC3=NCCCCC3)cc2)c1 | 23% | · | · | -7% | -27% | 11% | 22% | ·
COc1cc2c(cc1NC(=O)c1ccc3c(c1)OCO3)oc1ccccc12 | ? | ? | -8.6% | 1% | · | ? | -9% | -12%
Cc1ccc(N2CC(C(=O)N3CCN(c4ccccc4)CC3)CC2=O)cc1 (stereo unspecified) | 0% | 18% | -2.4% | -1% | · | 2% | 3% | -13%
CC1CCN(S(=O)(=O)c2cccc3cccnc23)CC1 | -12%[46.1 µM] | · | · | -2% | 11% | · | 33% | -4%
CC(C)CCN(C(=O)Cc1ccc(Cl)c(Cl)c1)c1c(N)n(Cc2ccccc2)c(=O)[nH]c1=O | 2% | · | · | -5% | ? | ? | -4% | ·
COc1cc(CN(C(=O)c2ccc(OC(C)C)cc2)c2ccccn2)cc(OC)c1OC | ? | ? | -5.4% | · | 0% | -13%[46.1 µM] | · | ·
Cc1cccc(-c2nnc(SCC(=O)c3ccc(O)cc3O)n2C)c1 | -26%[46.1 µM] | · | · | -5% | 10% | -20% | 7% | 4%
O=C(Nc1cccc(-c2cn3c(n2)SCC3)c1)c1ccc(Br)o1 | 7%[46.1 µM] | · | · | -3% | 8% | -6%[46.1 µM] | 14% | ·
CCc1nn(-c2ccccc2)c2nc(-c3ccc(O)cc3)c3cc(OC)c(OC)cc3c12 | · | -9% | -0.8% | · | -24% | 3%[46.1 µM] | · | ·
Cc1ccc(O)c(C(=O)c2cnn(C(=O)c3cccc(S(=O)(=O)N(C)C)c3)c2)c1 | 15% | · | · | 3% | -22% | 1% | -15% | ·
CC(NC(=O)c1cccc(N(C)C)c1)c1ccc(-n2ccnc2)cc1 (stereo unspecified) | 3% | · | · | 1% | -7% | -28% | 6% | -8%
Cn1cc(-c2cc3n(n2)CCC(=O)N3CCCC(=O)NCc2ccccc2Cl)c2ccccc21 | · | ? | -2.2% | · | 0% | ? | · | ·
COc1ccc(S(=O)(=O)N2CCN(CC(=O)Nc3c(C)n[nH]c3C)CC2)cc1OC | ? | · | · | -2% | 1% | 9% | 14% | ·
CCC1(CC)NC(=O)N(CC(=O)N2N=C(c3ccc(Cl)cc3)CC2c2ccco2)C1=O (stereo unspecified) | ? | · | · | 0% | -14% | ? | -3% | ·
Cc1ccc(NC(=O)CCNC(=O)N2C[C@H]3C[C@@H](C2)c2cccc(=O)n2C3)c(C)c1 | · | · | · | 9% | -13% | · | -2% | -15%
Cc1ccc(C(=O)N2CCN(C(=O)N3CCOCC3)CC2)cc1 | 18%[46.1 µM] | 2% | 1.0% | 2% | 2% | 11% | 11% | -3%
CCOC(=O)CCc1c(C)nc2c(c(C)nn2-c2ccc(C)cc2)c1C | 15%&15%[46.1 µM] | -4% | 1.9% | -1% | -6%&2% | -3%[46.1 µM] | ? | -6%
